Screens from PubChem.
Vaccinia inh: blocks a specific stage of Vaccinia orthopoxvirus infection; actives 0.01% (n = 89,000); AID 1053133; activity change (mCherry), % (no concentration beside the values); Vaccinia-infected cells, mCherry/Venus stage reporter fluorescence; active compounds read low; some inactives read as strong as hits;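 active = mCherry past -33% and 40 or more points under the early reporter, replicates agreeing; inconclusive = past -33% without that gap or agreement; tested in A549 cells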;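 note: scaled between vehicle wells and reference inhibitor wells; 23 nL library stock went into each well; one replicate is shown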
Vaccinia inh Venus: recorded beside Vaccinia inh, whose call it bears; activity change (Venus), %; measured here: Venus reporter, other viral stage;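 negative = less Venus signal; first of two replicates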
* hit, by the source's call; ? = inconclusive; / = no result given; & = joins results of further samples.

SMILES | Vaccinia inh | Vaccinia inh Venus
CN1C(=O)c2cc(NC(=O)c3cccc(C(F)(F)F)c3)ccc2OC[C@@H]2O[C@@H](CC(=O)O)CC[C@@H]21 | 2.2 | 0.8
Cc1ccc(OC(=O)N(C)C[C@H]2OCc3cnnn3CCCC(=O)N([C@@H](C)CO)C[C@@H]2C)cc1 | 8.2 | 2.7
CC(C)NC(=O)NCC[C@@H]1CC[C@@H](NS(=O)(=O)c2ccc(-c3ccccc3)cc2)[C@H](CO)O1 | -17.8 | -17.0
CCCNC(=O)N(C)C[C@H]1Oc2ncc(/C=C/c3ccccc3)cc2C(=O)N([C@@H](C)CO)C[C@H]1C | 18.5 | 10.5
C[C@@H]1CN([C@H](C)CO)C(=O)c2cc(C#Cc3cccnc3)cnc2O[C@@H]1CN(C)Cc1cccnc1 | 21.2 | 0.5
COc1ccc(NC(=O)Nc2cccc3c2O[C@@H](CN(C)Cc2ccc(C(=O)O)cc2)[C@@H](C)CN([C@H](C)CO)C3=O)cc1 | 4.3 | -1.7
C[C@H](CO)N1C[C@H](C)[C@H](CN(C)S(=O)(=O)c2ccc(F)cc2)Oc2ccc(NC(=O)CCCN(C)C)cc2C1=O | 8.8 | 3.5
CCCC(=O)Nc1ccc2c(c1)OC[C@@H](C)N(Cc1cncnc1)C[C@H](C)[C@@H](OC)CN(C)C2=O | 0.6 | 3.8
C[C@@H]1CN([C@H](C)CO)C(=O)c2cc(NC(=O)Nc3ccc(C(F)(F)F)cc3)ccc2O[C@@H](C)CCCCO[C@@H]1CN(C)Cc1ccc2c(c1)OCO2 | -19.0 | -13.6
O=C(c1ccccc1F)N1CC(=O)N2[C@H](CO)[C@H](c3ccc(-c4cccnc4)cc3)[C@@H]2C1 | 19.7 | 6.3
CO[C@@H]1CN(C)C(=O)c2ccc(NC(=O)Nc3ccccc3F)cc2OC[C@H](C)NC[C@H]1C | -16.7 | -15.8
CO[C@H]1CN(C)C(=O)c2cc(NS(=O)(=O)CC(F)(F)F)ccc2OC[C@H](C)N(C(=O)c2ccc3c(c2)OCO3)C[C@H]1C | 18.7 | 10.7
COc1cccc(-c2cnc3c(c2)C(=O)N([C@H](C)CO)C[C@@H](C)[C@@H](CN(C)C(=O)Nc2c(C)noc2C)O3)c1 | 7.5 | 5.4
CCCc1cn(CC[C@H]2CC[C@H](NC(=O)C3CCCCC3)[C@H](CO)O2)nn1 | -3.2 | -5.6
COc1ccc(NC(=O)N(C)C[C@H]2Oc3ccc(NS(=O)(=O)c4cccs4)cc3C(=O)N([C@H](C)CO)C[C@H]2C)cc1 | -4.0 | -2.5
COc1ccc2c3c(n(C)c2c1)[C@H](CO)N(C(=O)NC(C)C)CC31CN(Cc2nccs2)C1 | -2.0 | -3.3
O=C(Cc1cccnc1)N1CC2(C1)[C@@H](c1ccccc1)[C@@H](CO)N2C(=O)C1CC1 | 5.5 | 0.4
O=C(C[C@@H]1C[C@H]2c3cc(NC(=O)Nc4ccccc4)ccc3O[C@H]2[C@H](CO)O1)NCc1ccccc1 | -11.3 | -13.7
Cc1ccc(S(=O)(=O)N[C@H]2CC[C@@H](CCNC(=O)c3ccccc3F)O[C@H]2CO)cc1 | -14.8 | -9.7
Cc1ccc(S(=O)(=O)Nc2ccc3c(c2)C(=O)N([C@@H](C)CO)C[C@@H](C)[C@H](CN(C)S(=O)(=O)c2cn(C)cn2)O3)cc1 | -8.1 | 1.3
CCCC(=O)Nc1ccc2c(c1)C(=O)N(C)[C@@H]1CC[C@H](CC(=O)Nc3ccccc3)O[C@@H]1CO2 | -15.4 | -6.3
CCS(=O)(=O)N1CC(=O)N2[C@@H](CO)[C@H](c3ccc(-c4ccccc4F)cc3)[C@@H]2C1 | 8.0 | 4.1
C[C@H](CO)N1C[C@H](C)[C@@H](CN(C)S(=O)(=O)c2cccc(F)c2)Oc2ncc(C#CC3CC3)cc2C1=O | -19.6 | -24.8
C[C@H]1CN([C@@H](C)CO)C(=O)c2cc(NS(C)(=O)=O)ccc2O[C@@H]1CN(C)Cc1ccccc1 | 11.2 | 8.4
C[C@H]1CN([C@@H](C)CO)C(=O)c2cc(NC(=O)Nc3ccc(F)cc3)ccc2O[C@@H]1CN(C)Cc1ccc2c(c1)OCO2 | 1.9 | -0.2
O=C(c1cccc(F)c1)N1CCCCN2[C@@H](CO)[C@H](c3ccc(C#CC4(O)CCCC4)cc3)[C@@H]2C1 | 16.5 | 6.8
C[C@@H]1CN([C@@H](C)CO)C(=O)c2ccccc2-c2ccccc2CO[C@@H]1CN(C)S(=O)(=O)CC(F)(F)F | -25.3 | -14.9
COc1cccc(C(=O)Nc2ccc3c(c2)C(=O)N(C)C[C@@H](OC)[C@H](C)CN(C(=O)C2CCC2)[C@H](C)CO3)c1 | -6.0 | 7.3
CN1c2ccc(-c3ccccc3)cc2[C@H]2[C@H](CCN2C(=O)c2cccc(F)c2)[C@H]1CO | -23.4 | -19.7
CC(=O)Nc1ccc2c(c1)C(=O)N(C)[C@H]1CC[C@H](CC(=O)NCc3ccc(Cl)cc3)O[C@H]1CO2 | 9.8 | 8.7
C[C@H](CO)N1C[C@H](C)[C@@H](CN(C)S(C)(=O)=O)Oc2ccc(NC(=O)NC3CCCCC3)cc2C1=O | 6.9 | 6.3
CCCN(C)C[C@H]1OCCCC[C@H](C)Oc2ccc(NS(=O)(=O)c3cccs3)cc2C(=O)N([C@H](C)CO)C[C@H]1C | 2.9 | 2.7
O=C(C[C@H]1C=C[C@@H](NC(=O)C2CCC2)[C@@H](CO)O1)NC1CCC1 | -2.5 | 8.1
C[C@H](CO)N1C[C@H](C)[C@@H](CN(C)Cc2ccccn2)Oc2ncc(C#Cc3cccc(F)c3)cc2C1=O | -14.1 | -16.2
O=C(C1CC1)N1CC(=O)N2[C@@H](CO)[C@@H](c3ccc(-c4ccccc4F)cc3)[C@@H]2C1 | -6.6 | -0.8
CCC(=O)N(C)C[C@@H]1Oc2cc(-c3cncnc3)ccc2S(=O)(=O)N([C@@H](C)CO)C[C@H]1C | 12.1 | 11.1
C[C@H]1CN([C@@H](C)CO)S(=O)(=O)c2ccc(C#CC3CC3)cc2O[C@@H]1CN(C)C(=O)c1ccccn1 | -22.5 | -18.9
C[C@@H](NC(=O)C[C@H]1CC[C@@H]2[C@H](COC[C@@H](O)CN2C(=O)Nc2cccc(Cl)c2)O1)c1ccccc1 | -17.1 | -10.7
C[C@@H]1CCCCO[C@H](CN(C)S(C)(=O)=O)[C@@H](C)CN([C@@H](C)CO)C(=O)c2cc(NC(=O)Nc3ccc(C(F)(F)F)cc3)ccc2O1 | 19.9 | -1.4
C[C@@H]1CN([C@@H](C)CO)C(=O)Cc2cc(NS(=O)(=O)c3ccc(F)cc3)ccc2O[C@@H]1CN(C)Cc1ccc(C(F)(F)F)cc1 | ? | /

Rewritten in CSV form: entries from further up
SMILES,Vaccinia inh,Vaccinia inh Venus
C[C@H](CO)N1C[C@H](C)[C@@H](CN(C)S(C)(=O)=O)Oc2ccc(NC(=O)NC3CCCCC3)cc2C1=O,6.9,6.3
CCCN(C)C[C@H]1OCCCC[C@H](C)Oc2ccc(NS(=O)(=O)c3cccs3)cc2C(=O)N([C@H](C)CO)C[C@H]1C,2.9,2.7
O=C(C[C@H]1C=C[C@@H](NC(=O)C2CCC2)[C@@H](CO)O1)NC1CCC1,-2.5,8.1
C[C@H](CO)N1C[C@H](C)[C@@H](CN(C)Cc2ccccn2)Oc2ncc(C#Cc3cccc(F)c3)cc2C1=O,-14.1,-16.2
O=C(C1CC1)N1CC(=O)N2[C@@H](CO)[C@@H](c3ccc(-c4ccccc4F)cc3)[C@@H]2C1,-6.6,-0.8
CCC(=O)N(C)C[C@@H]1Oc2cc(-c3cncnc3)ccc2S(=O)(=O)N([C@@H](C)CO)C[C@H]1C,12.1,11.1
C[C@H]1CN([C@@H](C)CO)S(=O)(=O)c2ccc(C#CC3CC3)cc2O[C@@H]1CN(C)C(=O)c1ccccn1,-22.5,-18.9
C[C@@H](NC(=O)C[C@H]1CC[C@@H]2[C@H](COC[C@@H](O)CN2C(=O)Nc2cccc(Cl)c2)O1)c1ccccc1,-17.1,-10.7
C[C@@H]1CCCCO[C@H](CN(C)S(C)(=O)=O)[C@@H](C)CN([C@@H](C)CO)C(=O)c2cc(NC(=O)Nc3ccc(C(F)(F)F)cc3)ccc2O1,19.9,-1.4
C[C@@H]1CN([C@@H](C)CO)C(=O)Cc2cc(NS(=O)(=O)c3ccc(F)cc3)ccc2O[C@@H]1CN(C)Cc1ccc(C(F)(F)F)cc1,?,/

New compounds follow.
SMILES | Vaccinia inh | Vaccinia inh Venus
N#C[C@@H]1[C@@H](c2ccc(-c3cccnc3)cc2)[C@H](CO)N1C(=O)C1CC1 | 9.1 | 7.8
CNC[C@@H]1Oc2ncc(/C=C/c3ccccc3)cc2C(=O)N([C@@H](C)CO)C[C@@H]1C | -21.3 | -13.3
COC(=O)[C@@H]1[C@@H](CO)[C@@H]2Cn3c(ccc(-c4cccc(OC)c4)c3=O)[C@H]1N2C(=O)c1ccccc1F | 1.0 | 7.8
O=C1N(CCS(=O)(=O)c2ccccc2)c2ccccc2[C@@H]2OC(c3ccc(OCCCO)cc3)=N[C@]12CCS(=O)(=O)c1ccccc1 | 4.3 | 8.6
O=C(c1cnccn1)N1CC(=O)N2[C@H](C1)[C@H](c1ccc(-c3cccc(F)c3)cc1)[C@@H]2CO | -2.4 | 3.3
NCC[C@H]1CC[C@@H](NC(=O)CCN2CCCCC2)[C@H](CO)O1 | 5.1 | 2.0
C[C@H](CO)N1C[C@H](C)[C@H](CN(C)CC2CC2)Oc2ccc(NC(=O)CCCCCC(=O)Nc3ccccc3N)cc2C1=O | 25.7 | 12.5
CC(C)NC(=O)N1CCCCN2[C@H](CO)[C@@H](c3ccc(Br)cc3)[C@@H]2C1 | 12.9 | 4.9
CC(C)(O)C#Cc1ccc([C@H]2[C@@H](CO)N3CCCCN(C(=O)c4cccnc4)C[C@@H]23)cc1 | 17.9 | 3.6
CCCNC(=O)N(C)C[C@@H]1Oc2ncc(C#CCC(C)C)cc2C(=O)N([C@H](C)CO)C[C@H]1C | 10.0 | -0.8
C[C@H]1CN([C@@H](C)CO)C(=O)CCCn2cc(nn2)CO[C@@H]1CN(C)C(=O)c1ccncc1 | 5.5&4.7 | 2.1&9.7
CC(C)C#Cc1ccc([C@@H]2[C@@H](CO)N3CCCCN(S(=O)(=O)Cc4ccccc4)C[C@H]23)cc1 | ? | /
CO[C@H]1CN(C)C(=O)c2cc(NC(=O)c3ccccc3F)ccc2OC[C@H](C)N(C)C[C@@H]1C | 0.9 | -2.4
C[C@@H]1CN([C@@H](C)CO)C(=O)c2cc(NC(=O)Cc3cn(C)c4ccccc34)ccc2O[C@H]1CN(C)C(=O)Nc1ccc2c(c1)OCO2 | 3.9 | 0.0
CNC[C@H]1OCCCC[C@@H](C)Oc2ccc(NS(C)(=O)=O)cc2C(=O)N([C@@H](C)CO)C[C@@H]1C | 10.1 | 10.4
CC(C)NC(=O)Nc1ccc2c(c1)C(=O)N([C@@H](C)CO)C[C@H](C)[C@H](CN(C)Cc1ccncc1)OCCCC[C@@H](C)O2 | 9.4 | -0.7
C[C@H]1CN([C@@H](C)CO)S(=O)(=O)c2ccc(C#CC3(O)CCCC3)cc2O[C@@H]1CN(C)C(=O)Cc1ccccc1 | -13.2 | -13.0
C[C@@H]1CN([C@H](C)CO)C(=O)c2cc(NS(=O)(=O)c3ccc(Cl)cc3)ccc2O[C@@H]1CN(C)CC1CCCCC1 | -8.8 | 1.7
C[C@H]1CN([C@@H](C)CO)C(=O)CCCn2nncc2CO[C@H]1CN(C)Cc1ccc2c(c1)OCO2 | 13.9 | 17.5
CCNC(=O)C[C@H]1C=C[C@@H](NC(=O)C2CCC2)[C@@H](CO)O1 | -3.1 | -0.2
CC=Cc1ccc2n(c1=O)C[C@H]1[C@H](CO)[C@@H](C(=O)NCCC)[C@@H]2N1CC1CCOCC1 (mixture of isomers) | 8.3 | 6.9
C[C@@H]1CN([C@H](C)CO)C(=O)c2cc(Br)cnc2O[C@@H]1CN(C)C(=O)CC1CC1 | 17.8 | 13.1
O=C(C[C@H]1CC[C@H](NC(=O)NC2CCCC2)[C@H](CO)O1)NCc1ccc(F)cc1 | 2.1 | 5.3
CCCNC(=O)C[C@H]1CC[C@H]2[C@@H](COC[C@@H](O)CN2C(=O)c2cc(Cl)cc(Cl)c2)O1 | 0.3 | 5.5
Cc1ccc(S(=O)(=O)N(C)C[C@H]2Oc3ccc(NS(C)(=O)=O)cc3C(=O)N([C@H](C)CO)C[C@@H]2C)cc1 | 3.8 | -3.7
CC(C)CC#Cc1ccc2c(c1)O[C@@H](CN(C)C(=O)CN(C)C)[C@@H](C)CN([C@H](C)CO)S2(=O)=O | -34.8 | -22.8
C[C@@H]1CN([C@@H](C)CO)C(=O)c2cccc(NC(=O)Nc3ccc(C(F)(F)F)cc3)c2O[C@H]1CN(C)Cc1ccc(Cl)c(Cl)c1 | -21.9 | -15.1
COc1ccc(S(=O)(=O)N(C)C[C@H]2Oc3ccc(NC(=O)NC(C)C)cc3CC(=O)N([C@@H](C)CO)C[C@H]2C)cc1 | 15.8 | 7.5
COCC(=O)Nc1ccc2c(c1)C(=O)N(C)C[C@@H](OC)[C@@H](C)CN(Cc1cncnc1)[C@@H](C)CO2 | 2.5 | 2.1
CC(C)CC#Cc1ccc2c(c1)O[C@H](CN(C)Cc1ccccc1F)[C@H](C)CN([C@H](C)CO)S2(=O)=O | ? | /
N#C[C@H]1N[C@@H](CO)[C@H]1c1ccc(C#CC2CCCC2)cc1 | 1.5 | 6.8
C[C@@H]1CN([C@@H](C)CO)C(=O)c2cc(-c3ccccc3F)cnc2O[C@@H]1CN(C)C(=O)C1CC1 | -5.1 | 2.6
O=C(CC(F)(F)F)N1C[C@H]2[C@@H](c3ccccc31)[C@H](CO)N2C(=O)c1cccnc1 | 11.5 | 7.6
COc1cccc(C#Cc2ccc([C@@H]3[C@H](C#N)N(C(=O)C4CC4)[C@H]3CO)cc2)c1 | -23.5 | -13.8
COc1ccccc1-c1cnc2c(c1)C(=O)N([C@@H](C)CO)C[C@@H](C)[C@@H](CN(C)Cc1ccccc1)O2 | -15.1 | -11.1

An excerpt. The share of hits here may be higher or lower than overall.
